Source: PubChem BioAssay
Ba CapD inh = blocks the Bacillus anthracis CapD enzyme | purified CapD enzyme, fluorescence intensity read-out; stronger effect = lower value; some hits fall short of the stated cut | z-score (test concentration not listed) | 0.23% of 140,000 active | AID 492967;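 active = z-score under -4 in either of two replicates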;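 also: stock transfer was 100 nL into about 40 µL; score is relative to mean and spread of the plate; one replicate is shown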
AID504770 = E. coli YBA685 growth inhibition, screen for V. cholerae RctB inhibitors; E. coli YBA685 rctB-dependent plasmid, OD600 growth, 3 h; stronger effect = lower value; z-score (test concentration not listed); 0.27% of 130,000 active; AID 504770;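 active = z-score under -2 on both plates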;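 also: wells of about 30 µL received 100 nL stock; score is relative to mean and SD of the test wells; the first replicate is given; strong numbers were not always called active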
* = called active by the depositor; . = not tested or not shown.

SMILES | Ba CapD inh | AID504770
COc1ccc(/C=C2\SC(=S)N(CCC(=O)N(Cc3ccccc3)C(C)(C)C)C2=O)cc1OC | -0.15 | -0.2
COc1ccc(C2=CC(c3cccs3)NC(=S)N2)cc1 (configuration not stated) | 7.9 | 1.8
CCOC(=O)c1sc2nc(Cc3ccccc3)nc(NCc3cccs3)c2c1C | 11 | .
O=C(O)c1cn(-c2ccc(F)c(F)c2)c2c(F)c(F)c(F)c(F)c2c1=O | -0.38 | 2
Oc1c(Br)cc(Cl)cc1/C=N/c1ccccn1 | -0.45 | -1.3
Cc1nnc(SCc2ccc(C#N)cc2)s1 | 0 | 0.5
CCCn1c2ccccc2c2nnc(SCOC(=O)CN3C(=O)c4ccccc4C3=O)nc21 | 0.27 | 0.35
Cn1cccc1/C=C1/SC(=S)N(c2ccc(C(=O)O)cc2)C1=O | . | 0.65
CSc1sc(C#N)c2c1C(=O)CC(c1ccccc1)C2 (configuration not stated) | 0.84 | -0.45
CC1CC2(CC(C)(c3csc(N)n3)OC2=O)C(=O)O1 (configuration not stated) | -0.36 | .
COc1ccc(OC)c(/C=C2\Sc3ccccc3NC2=O)c1 | 0.36 | 1
O=C(Nc1ccc(Br)cc1F)c1cc(S(=O)(=O)N2CCN(c3ccccn3)CC2)ccc1F | -0.49 | .
CCOc1ccc(-c2cc(CCCC(=O)NCc3cccc(OC)c3)no2)cc1 | 0.12 | -0.95
O=C1C2C3c4ccccc4C(c4ccccc43)C2C(=O)N1Cc1ccco1 (configuration not stated) | . | 1.2
COc1ccc2ccccc2c1CN1CCN(C(=O)c2ccccc2F)CC1 | . | -0.65
CC(C)OC(=O)Nc1ccc2c(c1)N(C(=O)CCN1CCCCC1)c1ccccc1CC2 | 5.8 | .
Cc1ccc(C(=O)CSc2ncn(-c3ccccc3)n2)c(C)c1 | . | -0.2
NS(=O)(=O)c1ccc(Nc2nc(-c3ccccc3)c3cc(Cl)ccc3n2)cc1 | 0.18 | .
CCN(C(=O)/C=C/c1ccc(C(F)(F)F)cc1)C1CCS(=O)(=O)C1 (configuration not stated) | . | 0.65
Fc1ccccc1-c1nnc2ccc(C(F)(F)F)cn12 | 0.81 | 0.95
O=C(O)C1CC1(Cl)Cl (configuration not stated) | -0.21 | .
O=C(O)C1CCCN(C(=O)c2cccc3ccccc23)C1 (configuration not stated) | . | -0.8
COc1cccc(OC)c1CN1CCC(NC(=O)C(C)(C)C)CC1 | -0.12 | .
FC(F)(F)c1nnc2n1N=C(c1ccccc1)CS2 | 0.1 | 0.2
CC(C)(C)c1cc2oc3c(c2cc1OC(=O)c1cccc(Cl)c1)CCCC3 | -0.16 | .
CCC(O)c1nc2ccccc2n1C (configuration not stated) | -1.7 | 1.3
CC(=O)N=C1SC2CS(=O)(=O)CC2N1c1ccc2c(c1)OCO2 (configuration not stated) | -0.66 | 2.2
CCCCNc1ccc(C(F)(F)F)cn1 | 4.9 | 1.2
CN1c2ccccc2C(=O)/C(=C\Nc2ccccn2)S1(=O)=O | 2 | .
CN(C(=O)c1ccc2c(Cl)c3c(nc2c1)CCCC3)C1CCCCC1 | 2.1 | 1.3
Cc1cc2c(c(=O)n1C)C(c1ccc(C(C)C)cc1)C(C#N)=C(N)O2 (configuration not stated) | . | 2.3
O=C(Nc1ccccn1)C1CCCN1S(=O)(=O)c1ccc(Cl)cc1 (configuration not stated) | 0.12 | -0.75
CC(=O)Nc1ccc(-c2ccc(NC(C)=O)cc2)cc1 | 0.94 | -0.15
CCOC(=O)Oc1c(Cl)cc2oc(=O)sc2c1Br | -5.3* | -0.85
CN1CCN(Nc2ncnc3sc4c(c23)CCCC4)CC1 | . | -0.35
S=C(c1ccc(Br)cc1)N1CCCC1 | -0.54 | -1.6
O=C(c1nnsc1S(=O)(=O)c1ccc(Cl)cc1)N1CCOCC1 | 0.74 | .
CCOC(=O)C1=C(C)NC2=C(C(=O)C(C(=O)OCC)C(c3ccccc3OC)C2)C1c1ccc(OC)cc1 (configuration not stated) | 3.7 | .
CCn1c(-c2cc(Br)cc(OC)c2O)nc2cc(S(=O)(=O)N(C)C)ccc21 | . | 0.25
COc1ccccc1/C=C(\C(=O)N1CCN(c2ccccc2)CC1)c1ccccc1 | 0.73 | .
CNC(C)c1nc2ccccc2s1 (configuration not stated) | . | -0.3
CCOC(=O)C1=C(C)Nc2nc3ccccc3n2C1c1ccccc1 (configuration not stated) | 0.19 | 0.4
Cc1ccc(Cl)cc1N1C(=O)C(N2C(=O)c3ccc([N+](=O)[O-])cc3C2=O)C1c1cccc(F)c1 (configuration not stated) | -0.47 | .
CCOC(=O)C1=C(CSc2nc(CC)c(C)cc2C#N)OC(N)=C(C#N)C1c1ccccc1Cl (configuration not stated) | 0.13 | .
CC(C)N1C(=O)C2C(c3ccco3)NN(Cc3ccccc3)C2C1=O (configuration not stated) | -0.44 | -0.3
Cc1cccc(/C=C2\CS/C(=C\c3cccc(C)c3)C2=O)c1 | 1.2 | -0.3
CCOC(=O)/C(C#N)=C/Nc1ccc2c(c1)OCO2 | -0.6 | .
CC1CN(CC(=O)N(c2ccc(Nc3ccccc3)cc2)C(C)C)CC(C)O1 (configuration not stated) | . | -0.4
CC(=O)Nc1ccc(-c2nc(-c3ccccc3)c3ccccc3n2)cc1 | 0.45 | .
O=C(COC(=O)c1cc2ccccc2oc1=O)c1ccccc1 | -0.73 | -0.85
COc1ccc(NC(=O)c2cccn2-c2ncc(C(F)(F)F)cc2Cl)cc1 | -0.57 | .
O=C1/C(=C/c2c(NCCCn3ccnc3)nc3ccccn3c2=O)SC(=S)N1CC1CCCO1 (configuration not stated) | 0.1 | .
COc1ccccc1NC(=O)C1=C(C)NC2=C(C(=O)CC(C)(C)C2)C1c1ccc(Cl)cc1Cl (configuration not stated) | 28 | -0.9
O=C(Cn1c(=O)oc2ccccc21)NCC1CCN(Cc2ccccc2F)CC1 | -0.27 | -0.75
O=C(O)C1Cc2ccccc2N1C(=O)c1ccccc1 (configuration not stated) | 0.17 | -0.05
CN(C)C(=S)SCc1ccc(C(=O)Oc2c(Cl)cccc2Cl)cc1 | 0.89 | 0.95
Cc1n[nH]c(C)c1Sc1nnc(C(F)(F)F)n1C | -0.46 | -0.7
CC(Oc1ccc(-c2ccccc2)c(F)c1)c1ccn(C(=O)C2CCCCC2)n1 (configuration not stated) | -0.42 | .
COCCn1c(SC)nnc1-c1c[nH]c2ccccc12 | -0.28 | -0.95
CCOc1cc(/C=C2/C(=O)N(c3ccccc3)N=C2C)ccc1OS(=O)(=O)c1ccccc1[N+](=O)[O-] | 1.2 | .
(list continues)
SMILES | Ba CapD inh | AID504770
CCCn1nnnc1SCC(=O)N1CCCC1 | . | 0.25
CCc1ccccc1NC(=O)C1CCCN1S(=O)(=O)c1cccc2nsnc12 (configuration not stated) | -1.1 | 0.15
CN=Cc1cc(-c2ccccc2)oc1S | -3.1 | 1.1
O=C1CSC(c2cc3c(cc2[N+](=O)[O-])OCO3)N1c1ccc(Br)cc1 (configuration not stated) | 0.41 | .
CC(=O)[C@@]1(O)CCC2C3C[C@H](C)C4=CC(=O)C=CC4(C)[C@@]3(F)[C@@H](O)C[C@@]21C (some centres not stated) | 0.81 | 0.7
CCOC(=O)C1=C(C)N=c2s/c(=C\c3ccc(N4CCCCC4)o3)c(=O)n2C1c1ccc(OC)cc1OC (configuration not stated) | -0.27 | .
O=C(O)CSCC(=O)NC1CCN(Cc2c(F)cccc2Cl)CC1 | 0.15 | -0.85
OCC12CC3CC(C1)CC(CO)(C3)C2 | -0.8 | -0.6
O=C(CCC(=O)N1CCSc2ccccc21)NCc1cccs1 | -1.7 | -0.35
O=C1/C(=C/c2ccccc2)CCc2ccccc21 | -0.11 | 3.2
COc1ccccc1NC(=O)CSc1nc2ccccc2c(=O)n1CCC(=O)NCCc1ccc(OC)c(OC)c1 | 0.91 | .
COc1cc(C2=N/C(=C\c3cccc(Br)c3)C(=O)O2)cc(OC)c1OC | 0.97 | .
CSC(=NC12CC3CC(CC(C3)C1)C2)NN | 0.44 | -0.95
O=C(Nc1ccccc1Cl)c1ccccc1O | . | -0.05
CN(CC(=O)O)S(=O)(=O)c1ccc2c(c1)OCCO2 | -0.23 | -0.6
CCNc1nc(NCC)nc(Oc2ccc(=O)[nH]n2)n1 | -0.96 | 0.4
O=S(=O)(c1ccc(Cl)cc1)N1CCCC1c1cccnc1 (configuration not stated) | -0.48 | 1.7
CC(C)Cc1cc(C(=O)O)nc(=O)[nH]1 | . | 1.4
NC(N)=Nc1nc(=O)c2ccccc2s1 | -1.1 | 0
CCCC1(CCC)NC(=S)N(c2ccccc2)N1 | -0.23 | .

Another view of some results above:
molecule	Ba CapD inh	AID504770
CC(=O)[C@@]1(O)CCC2C3C[C@H](C)C4=CC(=O)C=CC4(C)[C@@]3(F)[C@@H](O)C[C@@]21C (some centres not stated)	0.81	0.7
CCOC(=O)C1=C(C)N=c2s/c(=C\c3ccc(N4CCCCC4)o3)c(=O)n2C1c1ccc(OC)cc1OC (configuration not stated)	-0.27	.
O=C(O)CSCC(=O)NC1CCN(Cc2c(F)cccc2Cl)CC1	0.15	-0.85
OCC12CC3CC(C1)CC(CO)(C3)C2	-0.8	-0.6
O=C(CCC(=O)N1CCSc2ccccc21)NCc1cccs1	-1.7	-0.35
O=C1/C(=C/c2ccccc2)CCc2ccccc21	-0.11	3.2
COc1ccccc1NC(=O)CSc1nc2ccccc2c(=O)n1CCC(=O)NCCc1ccc(OC)c(OC)c1	0.91	.
COc1cc(C2=N/C(=C\c3cccc(Br)c3)C(=O)O2)cc(OC)c1OC	0.97	.
CSC(=NC12CC3CC(CC(C3)C1)C2)NN	0.44	-0.95
O=C(Nc1ccccc1Cl)c1ccccc1O	.	-0.05
CN(CC(=O)O)S(=O)(=O)c1ccc2c(c1)OCCO2	-0.23	-0.6
CCNc1nc(NCC)nc(Oc2ccc(=O)[nH]n2)n1	-0.96	0.4
O=S(=O)(c1ccc(Cl)cc1)N1CCCC1c1cccnc1 (configuration not stated)	-0.48	1.7
CC(C)Cc1cc(C(=O)O)nc(=O)[nH]1	.	1.4
NC(N)=Nc1nc(=O)c2ccccc2s1	-1.1	0
CCCC1(CCC)NC(=S)N(c2ccccc2)N1	-0.23	.

Continued:
SMILES | Ba CapD inh | AID504770
CNC(=O)CN1c2ccccc2C(C)(C)C12C=Cc1c(ccc3ccccc13)O2 (configuration not stated) | -0.46 | .
c1ccc(C2=NNC(c3nc4ccccc4[nH]3)C2)cc1 (configuration not stated) | . | -0.7
NC(=O)C1CCN(S(=O)(=O)c2cccc3nonc23)CC1 | 0.25 | .
CCN(CC)S(=O)(=O)c1ccc(Br)cc1 | 0.28 | -0.05
CCOC(=O)C1C(c2cccs2)C(C(=O)OCC)C(O)(C(F)(F)F)NC1(O)C(F)(F)F (configuration not stated) | 0.12 | .
O=C1Nc2ccccc2C1=NC1CCS(=O)(=O)C1 (configuration not stated) | 0.48 | -0.35
O=C(ON1C(=O)c2ccccc2C1=O)c1ccco1 | -0.51 | 2
CCNC(=O)Nc1nc2ccccc2s1 | -0.56 | -0.7
CCN(CC)S(=O)(=O)c1ccc2c(c1)CCCN2 | . | -0.2
O=C(O)c1ccc(N2C(=O)CSC2=S)cc1 | . | -0.6
O=C1N(c2ccccc2)C(c2ccccc2)N2CCCN12 (configuration not stated) | 0.43 | .
N#Cc1c(NC(=O)CSc2ccccn2)sc2c1CCCC2 | -0.56 | 0.7
Cc1ccnc(-n2c(C)ccc2C)c1 | 0.41 | -0.65
O=C(CC1(O)OC(c2ccccc2)=CC1=O)c1ccccc1 (configuration not stated) | -0.24 | -0.5
CC(Nc1nc2ccccc2s1)C(=O)NN (configuration not stated) | . | -0.25
Cn1c(O)c(C(=NCCN2CCCCC2)c2ccccc2Cl)c(=O)n(C)c1=O | -0.08 | .
Cc1ccc2c(c1)N(CC(=O)N(Cc1cccnc1)C1CCCC1)C(=O)C(C)O2 (configuration not stated) | . | 1.6
FC(F)(F)c1cc(NCc2ccccc2C(F)(F)F)nc(-c2ccccn2)n1 | 0.36 | .
Cc1ccccc1N/C(SCc1cccc(F)c1)=C(/C#N)C(=O)NCc1cccs1 | 0.45 | .
O=c1[nH]c2c(s1)C1c3c(ccc4ccccc34)OCC1CS2 (configuration not stated) | 1 | 2.1
CCCCC(=O)NC1=NC(=O)C(C)(C)S1 | 0.28 | -1.9
Cc1ccc(C)c(N2CCN(C(=O)OCc3cccc(OCc4ccccc4)c3)CC2)c1 | -0.24 | .
Cc1cc(C(=O)COc2cc3ccccc3cc2C(=O)N2CCOCC2)c(C)n1Cc1ccco1 | . | -0.2
COc1ccc(NC(=O)C2CCN(C(=O)C3CC(=O)N(c4ccc(C)cc4)C3)CC2)cc1 (configuration not stated) | . | -1.1
O=C(Nc1ccccc1)c1cccn(Cc2ccc(Cl)c(Cl)c2)c1=O | -0.23 | .
Cc1ccc(S(=O)(=O)Nc2ccccc2C(=O)Nc2sc3c(c2-c2nc4ccccc4s2)CCCC3)cc1 | -0.71 | .
COC(=O)CCNc1ccc(Cl)cc1 | -0.04 | .
CN(C)c1cccc(C(=O)OCc2c(F)cccc2Cl)c1 | . | 1.8
O=C(OCCN1C(=O)c2cccc3c(N4CCOCC4)ccc(c23)C1=O)c1ccc(S(=O)(=O)N2CCOCC2)cc1 | 1 | .
CCOC(=O)N1CCN(C(=O)c2ccc(N3CC4CC(C3)c3cccc(=O)n3C4)c(NC(=O)c3cccs3)c2)CC1 (configuration not stated) | -0.25 | .
C=CCn1c(=O)/c(=C\c2ccccn2)s/c1=C(/C#N)C(=O)NCC1CCCO1 (configuration not stated) | . | -0.2
COc1ccc(N2CC(O)(c3ccc(C)cc3)[N+]3=C2SCCC3)cc1 (configuration not stated) | 0.36 | .
Cc1cc(C(=O)CSC#N)ccc1Cl | -0.6 | -1.7
Cc1ccc(C(=O)Nc2nc(=O)n(C(=O)c3ccccc3C)s2)cc1 | -0.085 | .
